# Screening data: PubChem, National Center for Advancing Translational Sciences (NCATS)
# VDR inh – Inhibitors of the vitamin D receptor (VDR): qHTS | VDR-SRC2-3 peptide fluorescence polarization, 2 h | Potency, µM, without a hit: max response, negative = inhibition, actives largely listed as inhibitors | 400,000 tested, 0.93% active | AID 504847, 2011; active means well fitted inhibition curve with a large enough effect; inconclusive means small, poorly fitted or top-dose-only effect, or another doubt; inactive means no such curve, though single readings can be large or run the other way; further: series mostly up to about 120 µM
# Target sequence (P11473 whole entry, looked up): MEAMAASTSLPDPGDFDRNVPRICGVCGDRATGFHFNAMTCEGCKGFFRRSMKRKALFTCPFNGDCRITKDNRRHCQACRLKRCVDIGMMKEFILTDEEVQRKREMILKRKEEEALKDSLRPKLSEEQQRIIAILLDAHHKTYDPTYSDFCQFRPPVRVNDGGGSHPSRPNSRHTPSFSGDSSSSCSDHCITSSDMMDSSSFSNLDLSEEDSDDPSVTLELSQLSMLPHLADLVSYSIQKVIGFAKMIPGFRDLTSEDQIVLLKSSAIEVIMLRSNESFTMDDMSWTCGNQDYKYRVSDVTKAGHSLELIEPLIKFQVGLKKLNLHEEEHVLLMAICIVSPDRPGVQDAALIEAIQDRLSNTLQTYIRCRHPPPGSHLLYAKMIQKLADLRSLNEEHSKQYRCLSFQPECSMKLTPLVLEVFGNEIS
#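 Compounds are added to VDR with labelled SRC2-3 coactivator peptide and held 2 h at room temperature. Inhibition of the VDR–peptide interaction is then read as a change in fluorescence polarization.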
# An asterisk follows results filed as active; u = inconclusive; & = joins results of further samples. On the % scale 0 is the no-effect control and ±100 the full control effect; potency means the concentration at half of the fitted maximal effect.
SMILES,VDR inh
COc1ccc(N2CCN(C(=O)c3cc(C)on3)CC2)cc1,-3%
O=C(N/N=C/c1ccc(OCc2ccc(F)cc2)cc1)c1ccccc1,-23%
CC(C)NS(=O)(=O)c1ccc2c(c1)NCC2,-6%
Cc1c(Cl)cccc1NC(=O)CSc1cc(-c2ccccc2)ncn1,7%
CC(C)NC(=O)CSc1ccccc1C(=O)N1CCN(S(=O)(=O)Cc2ccccc2)CC1,-12%
CC(C)COc1ccc(C(=O)OCC(=O)NCc2cccs2)cc1,-13%
O=C(CSc1ccccc1)N1CCCC(Nc2ccccc2)C1 (centres undefined),20µM*
CC1(C)CNC(=O)CC(C)(C)N1,-13%
COc1ccc(S(=O)(=O)N2CCC(n3c(C)nc4cccnc43)CC2)cc1Cl,7%
CC(=O)Nc1ccc(S(=O)(=O)N=S(C)C)cc1,-6%
O=C(Nc1ccccn1)c1ccc2c(=O)n3c(nc2c1)CCCCC3,0%
CC(Sc1nnc(C2CC2)n1C1CC1)C(=O)N(C)Cc1cccc(F)c1 (centres undefined),-17%
C=CCOC(=O)N[C@H](/C(C(=O)OC)=C(\C)NCc1ccccc1)c1ccc(Br)cc1,-2%
CC1CN(S(=O)(=O)c2ccc(C(=O)OCc3ccc(C#N)cc3)cc2)CC(C)O1 (centres undefined),-22%
COc1ccc(C2C3=C(CC(C)(C)CC3=O)Oc3ncn(Cc4ccco4)c(=N)c32)cc1 (centres undefined),-6%
CCCn1c(CCC(=O)Nc2cc(C(=O)OC)cc(C(=O)OC)c2)nc2cccnc21,-18%
O=c1[nH]c(SCc2ccccc2)nnc1-c1ccccc1,-14%
O=C(C[n+]1ccccc1)N/N=C/c1ccco1,-11%
CCC1(CC)C(=O)C2=C3C1[C@H](C(=O)OC)C=C(C(=O)OC)C[C@H]3[C@H]1C(=O)NC(=O)[C@H]1[C@H]2C (some centres undefined),-17%&1%
CCC(C)OC(=O)/C(C#N)=C\c1ccc(-c2cccc(C(F)(F)F)c2)o1 (centres undefined),-6%
COc1cc(OC)cc(C(=O)Nc2ccccc2C(=O)NCc2cccnc2)c1,13%
CNC(=S)N1C2CCC1CC(NC(=O)NC13CC4CC(CC(C4)C1)C3)C2 (centres undefined),-5%
Cc1cc(C)c(S(=O)(=O)N2CCN(C(=O)N(C)C)CC2)c(C)c1,5%
O=C(CSc1ncc(-c2ccccc2)[nH]1)Nc1cccc(C(F)(F)F)c1,5%
S=C(Nc1ccc2c(c1)OCCO2)Nc1ccc2c(c1)OCO2,-21%

# (listing goes on)
SMILES,VDR inh
S=C1CCSc2ccc(Cl)cc2N1,-2%
NC(=O)Nc1ccc(C(=O)OCC(=O)N2CCc3ccccc3C2)cc1,-16%
COc1ccc(N(C)S(=O)(=O)c2cccc(C(=O)NC3CCCCCC3)c2)cc1,-10%
C=CCn1c(C)cc(C(=O)CSc2ccc(NC(C)=O)cc2)c1C,3%
CCCc1[nH]nc2c1C1(C(=O)N(CC)c3ccccc31)C(C#N)=C(N)O2 (centres undefined),0%
CCn1c(N)c(C(=O)NCCCOC)sc1=S,u
Cc1c(O)cc2n(c1=O)-c1ccc(Cl)cc1C2(C)C,-11%
NC(=O)c1ccc(-n2nnnc2SCC(=O)Nc2ccc(N3CCOCC3)c(Cl)c2)cc1,5%
O=C(NC1CCCCC1)C(=S)N1CCOCC1,-15%
C/C=C(/C)C(=O)O[C@@H]1[C@H](OC(=O)C=C(C)C)c2c(ccc3ccc(=O)oc23)OC1(C)C,-9%
CC1CCCCC1N1CN=C(Nc2nc3ccccc3s2)NC1 (centres undefined),-14%
CCS(=O)(=O)N1CCC[C@H]2CN3CCc4cc(OC)ccc4[C@@H]3C[C@@H]21,-2%&6%
Cn1nc(C(C)(C)C)c([N+](=O)[O-])c1C(=O)N1CCOCC1,8%
O=C(CSc1nccc(-c2cccs2)n1)Nc1ccc(Cl)cc1,5%
OCc1nc2ccccc2n1CCCCOc1ccccc1,-1%
Cc1ccc(C)c(NC(=O)COc2cccc3c2CCN(Cc2ccccc2C)C3=O)c1,-8%
O=C(COc1ccccc1F)Nc1ccc(-c2nc3ccccc3s2)cc1,2%
CC(=O)N1CCCc2cc(S(=O)(=O)Nc3ccc(Cl)cc3F)ccc21,-12%
COc1ccccc1NC(=O)C1=C(C)Nc2nc(SCC(=O)c3ccc(C)cc3)nn2C1c1ccccc1C (centres undefined),22%
Cc1ccc(S(=O)(=O)N(C)C)cc1NC(=O)COC(=O)CCC1CCCC1,-5%
Cc1ccccc1OCCCn1c(CCNC(=O)C2CCCCC2)nc2ccccc21,1%
COc1ccccc1NC(=O)CN1CCN(S(=O)(=O)c2ccc(Br)cc2)CC1,-15%
CCOc1ccc(NC(=O)c2cc3c(=O)n(Cc4cccs4)ccc3nc2C)cc1,0%
COC(=O)CCN(c1ccccc1)S(=O)(=O)c1ccc(OC)cc1,1%
O=c1c(N2CCc3ccccc3C2)csc2ccccc12,3%

# Arranged by SMILES length (ascending): some entries from above.
SMILES,VDR inh
O=C(NC1CCCCC1)C(=S)N1CCOCC1,-15%
O=c1c(N2CCc3ccccc3C2)csc2ccccc12,3%
CC1CCCCC1N1CN=C(Nc2nc3ccccc3s2)NC1 (centres undefined),-14%
Cc1c(O)cc2n(c1=O)-c1ccc(Cl)cc1C2(C)C,-11%
O=C(CSc1nccc(-c2cccs2)n1)Nc1ccc(Cl)cc1,5%
O=C(COc1ccccc1F)Nc1ccc(-c2nc3ccccc3s2)cc1,2%
NC(=O)Nc1ccc(C(=O)OCC(=O)N2CCc3ccccc3C2)cc1,-16%
Cc1ccccc1OCCCn1c(CCNC(=O)C2CCCCC2)nc2ccccc21,1%
CC(=O)N1CCCc2cc(S(=O)(=O)Nc3ccc(Cl)cc3F)ccc21,-12%
Cc1ccc(S(=O)(=O)N(C)C)cc1NC(=O)COC(=O)CCC1CCCC1,-5%
COc1ccccc1NC(=O)CN1CCN(S(=O)(=O)c2ccc(Br)cc2)CC1,-15%
CCCc1[nH]nc2c1C1(C(=O)N(CC)c3ccccc31)C(C#N)=C(N)O2 (centres undefined),0%
NC(=O)c1ccc(-n2nnnc2SCC(=O)Nc2ccc(N3CCOCC3)c(Cl)c2)cc1,5%
CCS(=O)(=O)N1CCC[C@H]2CN3CCc4cc(OC)ccc4[C@@H]3C[C@@H]21,-2%&6%
COc1ccccc1NC(=O)C1=C(C)Nc2nc(SCC(=O)c3ccc(C)cc3)nn2C1c1ccccc1C (centres undefined),22%
C/C=C(/C)C(=O)O[C@@H]1[C@H](OC(=O)C=C(C)C)c2c(ccc3ccc(=O)oc23)OC1(C)C,-9%

# The results go on.
SMILES,VDR inh
CCOc1ccc(CNC(=O)c2cc3ccccn3n2)cc1OC,14%
O=C(COC(=O)/C=C/c1ccc(OC(F)F)cc1)Nc1cccc(S(=O)(=O)N2CCCC2)c1,13%
O=C(CN1C(=O)c2cccc3cccc(c23)C1=O)NCCCO,-1%
CCOC(=O)N1CCN(S(=O)(=O)c2ccc(F)c(C(=O)Nc3cccc(Cl)c3C)c2)CC1,-19%
COc1ccc2sc(NC(=O)CC(C)C)nc2c1,3%
CCOc1ccccc1NC(=O)C(NCC1CCCCC1)c1ccccc1 (centres undefined),3%
COc1ccc(NC(=O)CSCC(=O)N2CCN(C(=O)c3ccco3)CC2)cc1,0%
CCc1ccc(-n2c(=O)c3c4c(sc3n(Cc3ccc(F)cc3)c2=O)CCCC4)cc1,-10%
O=C(CN1CCCCC1)NC1CCc2cc3c(cc21)CCC3 (centres undefined),-1%
CCSc1nnc(C)n1-c1ccc(C(=O)O)cc1,-8%
CC(Oc1ccccc1)C(=O)N1CCN=C1SCc1ccccc1 (centres undefined),-9%
CCCCNC(=O)c1cc([N+](=O)[O-])[nH]n1,-17%
Cc1nnc(SCC(=O)Nc2ccccc2F)n1Cc1ccco1,-1%
COc1ccc(-c2nnn(CC(=O)N(CC(=O)NC3CCCC3)c3ccccc3)n2)cc1OC,79µM*
Cc1scc(-c2n[nH]c(=S)n2C(C)c2ccccc2)c1C (centres undefined),-4%
Cc1ccccc1C(=O)NN1C(=O)CSC1=S,19%
O=C(Nc1ccccc1)OCC1CCCN2CCCCC12 (centres undefined),-7%
C/C(=N\Nc1ccc(Cl)c(C(=O)O)c1)c1cccc([N+](=O)[O-])c1,5%
COC(=O)Nc1ccc(S(=O)(=O)N2CCCc3ccccc32)cc1,4%
Cc1nn(CC(=O)NC(=O)NC2CCCCC2C)c(=O)c(C#N)c1C (centres undefined),-13%
O=C1C(Cc2ccc3[nH]ccc3c2)NC(=S)N1c1ccccc1 (centres undefined),0%
Cc1ccc(-c2nc(COC(=O)C3=NN(c4ccccc4)C(=O)CC3)cs2)cc1,-3%
O=C(Nc1ccc2ncccc2c1)c1cccc(Br)c1,-2%
CN(C)S(=O)(=O)c1ccc(C(=O)OCC(=O)c2ccc3c(c2)NC(=O)CO3)cc1,-9%
COc1ccccc1N(CC(=O)Nc1ccc(Cc2ccncc2)cc1)S(=O)(=O)c1ccccc1,-1%

# Next records follow.
SMILES,VDR inh
CCN(CC)S(=O)(=O)c1ccc2c(c1)N(CC(=O)Nc1cccc(C#N)c1)C(=O)CO2,-23%
CCN(C(=O)CSc1nnc(C)c(=O)[nH]1)c1cccc2ccccc12,8%
CCOC(=O)c1sc(=S)n(-c2ccc(C)cc2)c1SC,1%
COc1cc(/C=N/NC(=O)c2cc3ccccc3cc2O)ccc1OCCN1CCCCC1,5%
COC(=O)CC1C(=O)NCCN1C(=S)NC(=O)c1sc2ccccc2c1Cl (centres undefined),-5%
O=C1Nc2ccc(S(=O)(=O)NCc3ccccn3)c3cccc1c23,-1%
Cc1nn(C)c(C)c1CNC(=O)c1cc2n(n1)C(C(F)(F)F)CC(c1cccs1)N2 (centres undefined),6%
COc1cccc(N2CCN(C(=O)c3cc(C)oc3C)CC2)c1,-1%
COc1ccc(CNC(=O)COc2ccc(C)nc2[N+](=O)[O-])cc1,-8%
COc1cccc(C2=NCCc3cc4c(cc32)OCO4)c1OC,-2%
Cn1c(C(=O)NCCCN2CCCC2=O)cc2c(=O)n(C)c3ccccc3c21,-15%
CCN(CC(=O)NCc1ccc(F)cc1)CC(=O)NC1CCCC1,-2%
Cn1c(-c2ccc3c(c2)OCO3)cnc1N,11%
O=C(CC1=NCCNC(c2ccccc2)C1)c1ccccc1O (centres undefined),-2%
COc1ccc(C2CC(=O)c3c([nH]c(C(=O)OC4CCCCCC4)c3C)C2)cc1OC (centres undefined),-13%
CCc1sc(C(=O)N2CCN(CC(=O)Nc3cccc(F)c3)CC2)cc1C,-22%
CC(C)OC(=O)c1ccc(NCc2cc(O)ccc2O)cc1,4%
CNC(=S)NCCc1ccc(OC)c(OC)c1,2%
CCOc1ccccc1OCCCC(=O)Nc1cccc(-n2cnnn2)c1C,0%
CC(C)OCCCNC(=O)c1ccc(N(C)S(C)(=O)=O)cc1,-22%
Cc1nc2ccc(C(=O)O)cc2c2c1CC(C)S2 (centres undefined),-10%
Cc1nc2c(c(C)nn2-c2ccccc2)c(C)c1CCC(=O)NCCCOC(C)C,-1%
CCOC(=O)C1(c2csc(N)n2)COC(=O)C1 (centres undefined),6%
C=CCOC(=O)C1=C(C)NC(SCC(=O)N(CC)CC)=C(C#N)C1c1ccco1 (centres undefined),9%&-20%
COc1cc([C@@H]2CC(=O)c3c(O)cc(O)cc3O2)ccc1O,3%

# Some of these compounds in order of heavy-atom count, descending:
SMILES,VDR inh
Cc1nn(C)c(C)c1CNC(=O)c1cc2n(n1)C(C(F)(F)F)CC(c1cccs1)N2 (centres undefined),6%
COC(=O)CC1C(=O)NCCN1C(=S)NC(=O)c1sc2ccccc2c1Cl (centres undefined),-5%
COc1cccc(C2=NCCc3cc4c(cc32)OCO4)c1OC,-2%

# Remaining list, next part:
SMILES,VDR inh
N#C/C(=C/c1ccc(OC(=O)c2ccc(Br)s2)cc1)c1nc2ccccc2[nH]1,-14%
COC(=O)c1cc(C(=O)OC)n(Cc2ccc(C)cc2)c1C,12%
COc1ccc(-c2nn3cnnc3s2)cc1OC,-4%
NC(=O)c1ccccc1N=Cc1ccc2ccccc2c1,-23%
Cc1cc(C)nc(N/N=C/c2sccc2C)n1,u
O=C(Nc1ccc(S(=O)(=O)N2CCOCC2)cc1)c1ccccc1Br,-11%
O=C(NCCCn1ccnc1)c1cn(-c2ccccc2)nc1-c1ccccc1,-10%
C=C(C)CNC(=S)N1CCN(C(c2ccccc2)c2ccccc2)CC1,-2%
O=C(COC(=O)Cn1cnc2ccccc21)NCCc1ccccc1,-7%
CCOC(=O)C(=CNc1ccc(C#N)cc1)C(=O)OCC,-2%
CN(C(=O)c1cc([N+](=O)[O-])ccc1NCc1cccnc1)c1ccccc1,-17%
CCC(Sc1nc(C)cc(C)n1)C(=O)NC1=NN=C(c2ccc(C)cc2)CS1 (centres undefined),u
Cc1c(-c2ccccc2)oc2c(C(=O)OCC(=O)Nc3ccc(C(N)=O)cc3)cccc2c1=O,3%
COc1ccc(/C=C/C(=O)NCCCN2CCOCC2)cc1,-2%
O=C(COC(=O)c1ccc(Cl)nc1)NCc1ccc2c(c1)OCO2,-1%
COc1cc(/C=N/NC(N)=O)ccc1OCC(=O)Nc1ccc(C)c(C)c1,9%
CN(CCC1CCCCO1)C(=O)c1cc(COc2ccc(F)cc2F)on1 (centres undefined),14%
Cc1cc(C)c(NC(=O)CN2C(=O)NC3(CCc4ccccc43)C2=O)c(Cl)c1 (centres undefined),1%
CC(=O)N1CCCN(C(=O)c2cc(COc3c(F)cccc3F)on2)CC1,-3%
COC(=O)Cc1c(C)nc2nc(Cc3ccccc3)[nH]n2c1=O,0%
COc1ccc2c(CNCCc3ccc(SC)cc3)c(C(=O)O)n(Cc3ccc(F)cc3)c2c1,10%
Cc1ccccc1N(C(=O)CNC(=O)c1cccs1)C(C(=O)NC1CCCC1)c1ccncc1 (centres undefined),-3%
COC(=O)c1ccc(CSc2nc3c(cnn3-c3ccc(F)cc3)c(=O)[nH]2)o1,5%
CC(Oc1ccccc1Cl)C(=O)Nc1ccc(S(=O)(=O)N2CCN(C)CC2)cc1 (centres undefined),u
O=C(CSc1nc(=O)n(CCCN2CCOCC2)c2c1CCCC2)Nc1ccc(F)c(F)c1,-24%
CCc1ccc(NC(=O)C2CCN(c3nc(-c4ccc(OC)cc4)no3)CC2)cc1,0%

# Some of the compounds tested. The share of hits here may be higher or lower than overall.
